# Screens from PubChem.
# TRPML1 agonist = agonists of human TRPML1 channel | Q9GZU1 | hit rate 0.12% among 410,000 | activation, % (no concentration beside the values) | TRPML1-expressing cells, Ca2+ dye fluorescence, FDSS; host cell line not named in the record; reference of the full effect not given here; in the data active = activation above about 50%; inconclusive = about 30% to 50%; inactive = below about 30%; further: 0% is about no effect; the text of the record puts the active cut at 80%
# Target sequence (Q9GZU1 whole entry, looked up): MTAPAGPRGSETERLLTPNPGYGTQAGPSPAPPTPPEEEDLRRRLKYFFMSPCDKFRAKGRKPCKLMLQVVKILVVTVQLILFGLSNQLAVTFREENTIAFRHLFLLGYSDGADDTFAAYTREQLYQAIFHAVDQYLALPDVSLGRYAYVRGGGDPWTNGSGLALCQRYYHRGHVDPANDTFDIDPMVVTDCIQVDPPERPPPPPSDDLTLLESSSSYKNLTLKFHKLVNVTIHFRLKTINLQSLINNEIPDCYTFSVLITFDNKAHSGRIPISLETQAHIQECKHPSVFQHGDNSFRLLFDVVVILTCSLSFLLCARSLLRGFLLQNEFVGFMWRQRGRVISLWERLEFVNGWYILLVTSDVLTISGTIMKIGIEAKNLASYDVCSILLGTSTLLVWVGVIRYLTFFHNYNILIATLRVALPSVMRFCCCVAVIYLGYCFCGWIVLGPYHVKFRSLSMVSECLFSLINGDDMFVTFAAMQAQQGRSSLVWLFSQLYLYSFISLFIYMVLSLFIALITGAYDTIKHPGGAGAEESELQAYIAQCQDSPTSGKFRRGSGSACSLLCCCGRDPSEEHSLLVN
#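 Cells: TRPML1-DL, 1X Tet inducer, ~16 h at 37 degrees C/5% CO2. Dye: ABD Ca8 no-wash + quencher, 45-90 min RT. Read: 10 s baseline, compound add, 110 s agonist phase; 54-4 EC80 (4uM final), 110 s antagonist phase.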
# TRPML1 blocker = human mucolipin-1 channel inhibition; Q9GZU1; TRPML1-inducible cells, Ca2+ dye fluorescence, FDSS; hits give low values; inhibition of EC80 agonist-evoked calcium signal; activity change, negative = inhibition, % (concentration not given with the values); hit rate 0.02% among 390,000; in the data active means activity change below about -50%; inconclusive means about -30% to -50%; inactive means above about -30%;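 further: stimulus is agonist 54-4 at its EC80 concentration; on the % scale 0 is the no-effect control and ±100 the full control effect; compound concentration not given in the record; the text of the record puts the active cut at -80%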
#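 TRPML1-DL cells, Tet-induced overnight (~16 h, 37 °C) at 1,500 cells/well, were loaded with Ca8 no-wash dye plus quencher for 45-90 min at room temperature. Compounds were pinned during FDSS kinetic reading; agonist 54-4 at EC80 (4 uM final) then added.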
# Sfp inh = Sfp phosphopantetheinyl transferase inhibition. Q9F4F7. Biochemical Sfp PPTase activity, qHTS. Potency, µM, for inactives: max response, negative = inhibition, usual class: inhibitors. hit rate 3.5% among 310,000; active means well fitted inhibition curve with a large enough effect; inconclusive means small, poorly fitted or top-dose-only effect, or another doubt; inactive means no such curve, though single readings can be large or run the other way;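 further: the enzyme is Sfp with the accession as filed and its product quenches rhodamine fluorescence; potency means the concentration at half of the fitted maximal effect; 0% = enzyme reaction without inhibitor and -100% = no enzyme wells; top concentration of the series not given in the record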
#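 Fluorescence-quenching assay: 15 nM Sfp-PPTase preincubated 15 min at room temperature with compound, then 5 uM rhodamine-CoA and 12.5 uM BHQ-2-labelled YbbR peptide added. Fluorescence (ex 525/em 598 nm) read at start and after 30 min; difference gives rate.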
# PINK1 modulator = PINK1 expression modulation | PINK1 immunofluorescence, high-content cytometry, 24 h | Potency, µM (series often up to 76.6 µM), inactives show top-dose activation (PINK1 increase), usual class: activators | hit rate 0.2% among 410,000; active = well fitted activation curve with a large enough effect; inconclusive = small, poorly fitted or top-dose-only effect; inactive = flat fitted curve, though single readings scatter; cell line not stated here;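 further: potency means the concentration at half of the fitted maximal effect; % of control where 0% means no effect; nearly all actives have a fitted effect of over 65% in size; a mitochondrial uncoupler was the plate control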
#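 Measures PINK1 amount and localization on or inside mitochondria by immunofluorescence. Stable cells get compounds at 5 concentrations for 24 hours before fixation and staining; CCCP controls included.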
# TRPV1 potentiator = human TRPV1 potentiation; Q8NER1; TRPV1-expressing cells, Fluo-8 calcium influx, capsaicin EC20 potentiation; host cell line not named in the record; control for the full effect not named in the record; potentiation, % at 8.33 µM; hit rate 0.02% among 320,000; AID 540277; active means potentiation above 80%; inconclusive means 30% to 80%; inactive means below 30%; further: 0% is about no effect
#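 Cells expressing TRPV1 were dye-loaded with Fluo-8 and read kinetically: 10 s baseline, 3 min after compound (agonist portion), then 2 min after EC20 capsaicin (allosteric enhancer portion). Calcium-bound dye fluorescence at 480/520 nm.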
# Menin-MLL FL inh = displaces fluorescein MLL peptide from human menin. Fluorescence polarization, fluorescein-MLL peptide displacement from menin. FP activity change, % at 61.4 µM. 290,000 tested, under 10 active; inconclusive = falling polarisation curve, or a change in total fluorescence; inactive = total fluorescence flat and polarisation flat or rising; no compound was filed as active; the % refers to the polarisation; negative = inhibition;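 further: % of control where 0% means no effect; inhibitors lower the polarisation; unlabelled MLL peptide was the positive control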
# ClpP mod = qHTS Assay for Activators of ClpP; ATP-dependent Clp protease proteolytic subunit (Bacillus subtilis (strain 168)), P80244; purified B. subtilis ClpP, FRET peptide cleavage, 20 min; Potency, µM (top dose mostly 57.5 µM), for inactives: at the highest dose activity change, negative = active; hit rate 1.9% among 340,000; active = well fitted falling curve with a large enough effect; inconclusive = small, poorly fitted or top-dose-only effect; inactive = no such curve, though single readings can be large or run the other way; further: potency means the concentration at half of the fitted maximal effect; the source files actives as falling curves though it sought activators and does not explain the sign; nearly all actives have a fitted effect of over 65% in size; many hits overshoot -100%
# Target sequence (P80244 whole entry, looked up): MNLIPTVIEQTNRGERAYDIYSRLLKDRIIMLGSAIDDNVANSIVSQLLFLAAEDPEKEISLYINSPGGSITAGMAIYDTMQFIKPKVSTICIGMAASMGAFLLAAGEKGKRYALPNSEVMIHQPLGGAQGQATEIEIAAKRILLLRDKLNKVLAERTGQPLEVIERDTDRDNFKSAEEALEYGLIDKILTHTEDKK
#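 Purified B. subtilis ClpP, 10 microg/mL final in Tris/HCl pH8 with KCl, BSA, glycerol and Tween-20, cleaved an Abz/nitrotyrosine-quenched decapeptide. Fluorescence (ex 320, em 430) was read at 0 and 20 min at room temperature. Delta was normalized to 5.8 microM ADEP and DMSO/no-enzyme controls.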
# Active calls of the source: *; ? = inconclusive; . = no result given; [ ] = remark or other dose.
SMILES,TRPML1 agonist,TRPML1 blocker,Sfp inh,PINK1 modulator,TRPV1 potentiator,Menin-MLL FL inh,ClpP mod
C#CCOCCOCCOCCNc1nc(N2CCN(C(=O)[C@H](CCCCN)n3cc(CN)nn3)CC2)nc(N2CCN(C(=O)[C@H](CCCN=C(N)N)n3cc(C(N)[C@H](C)CC)nn3)CC2)n1 (some centres undefined),0.7,-12.1,.,-0.4%,.,.,-1.0%
O=[N+]([O-])c1cccc(N=NN(CCO)c2cccc([N+](=O)[O-])c2)c1,1.0,22.9,-1.6%,3.5%[38.3 µM],-4.6,3.1,0.4%
O=C(NCc1ccco1)c1cc([N+](=O)[O-])ccc1N1CCCCC1,6.5,-2.7,7.0%,-1.5%,-2.2,-4.5,0.3%
O=C1CCCC2=C1C(c1cccs1)n1ncnc1N2 (centres undefined),0.8,8.4,33.9%[activator],.,-1.7,0.3,0.5%
c1ccc(C2CCC(N3CCNCC3)CC2)cc1 (centres undefined),2.1,7.5,-8.5%,0.2%,7.8,-1.7,1.2%
COc1ccc(-n2nc3c(c2NC(=O)CCCCl)CSC3)cc1,0.3,0.5,-9.3%,-0.7%,1.2,-1.1,1.1%
O=C(Oc1cc(-c2ccccc2)no1)c1ccc(Cl)cc1,-0.3,2.5,-5.1%,-0.1%,6.6,5.9,39.8µM*
CC(=O)c1c(N2CCN(Cc3ccc4c(c3)OCO4)CC2)nc(=S)n(-c2ccccc2)c1C,3.0,1.6,-3.6%,2.3%[38.3 µM],11.9,?,0.3%
NCCCNC(=O)c1cc2ccccc2[nH]1,-0.3,58.9,0.0%,-1.0%,7.0,-1.4,25.1µM*
COc1ccc(-c2cc(C(F)(F)F)nc(SCC(=O)NC(C)c3ccccc3)n2)cc1 (centres undefined),-0.1,-4.4,.,15.1%,.,.,4.1%
CS(=O)(=O)c1cccc(NC(=O)C2CCCN2S(=O)(=O)c2ccc(F)cc2)c1 (centres undefined),0.0,0.1,10.2%,-1.5%,-0.7,0.4,.
COc1ccc(O)c(CN2CC3CCC(CC3)C2)c1,-0.3,4.6,.,1.8%,.,.,-0.2%
CC(NC(=O)/C=C/c1ccc(Br)cc1)c1ccccc1 (centres undefined),3.2,43.0,9.3%,9.3%,-16.7,0.3,-3.9%
Nc1c(N(Cc2ccccc2)C(=O)COc2ccc(F)cc2)c(=O)[nH]c(=O)n1Cc1ccccc1,0.7,-9.3,14.2%,5.5%,8.1,4.4,1.0%
O=C1CCCC(O)=C1C=Nc1ccc2c(c1)oc1ccccc12,-0.5,-6.7,19.1%,0.9%,-19.1,3.1,5.0%
O=C(O)c1ccc(/C=C2\SC(=S)N(Nc3ccccc3)C2=O)cc1,0.5,6.3,-23.8%,-1.3%,8.4,0.2,.
CCCCCc1c2c(cc(O)c1C(=O)O)OC(=O)c1cc(C(=O)CCCC)c(OC)cc1O2,.,.,-24.8%,4.8%,.,-0.7,-3.5%
CCCN(CC(=O)Nc1ccc(F)c(F)c1F)C(=O)c1cc([N+](=O)[O-])ccc1N1CCOCC1,-0.3,3.9,.,1.3%,6.4,.,22.4µM*
COc1ccc(N2CCN(C(=O)CSCc3ccc(C)cc3)CC2)cc1,0.5,-1.3,.,0.0%,.,.,-1.5%
O=[N+]([O-])c1cc(-c2csc(NCCc3nc4cc(C(F)(F)F)ccc4n3CCCO)n2)ccc1Cl,0.4,-5.8,.,2.6%,.,.,0.5%
O=C(COC(=O)c1cc([N+](=O)[O-])ccc1N1CCOCC1)Nc1ncc(Cl)cc1Cl,-0.1,-6.8,-5.0%,-0.5%,6.1,.,1.2%
N#Cc1cc(N2CCOCC2)nc2ccccc12,-0.6,-1.5,14.6%,1.8%,2.5,13.0,-5.8%
CN1CCN(C2CN(Cc3cn(Cc4ccc(F)cc4)nn3)S(=O)(=O)C2)CC1 (centres undefined),-0.4,.,.,-0.3%,.,.,-0.9%
Cc1cc(C)c2c(N)c(C(=O)NNC(=O)c3ccccc3)sc2n1,0.4,16.3,-7.1%,1.9%,13.8,-0.5,.
Cc1ccc(S(=O)(=O)N2CCc3cc(C(=O)Nc4c(F)cccc4F)ccc32)cc1,0.2,46.3,.,-0.5%,.,.,-0.8%
C=CCn1c(SCc2nnc(-c3ccccc3)o2)nnc1C(O)c1ccccc1 (centres undefined),-0.5,-13.6,10.9%,6.5%[38.3 µM],8.7,0.8,0.7%
O=c1c(Cc2c(F)cccc2Cl)c(O)ccn1CCc1c[nH]c2ccccc12,-0.1,13.6,16.0%,3.5%,14.9,2.4,-0.2%
Clc1ccccc1Cn1c(/C=C/c2ccco2)nc2ccccc21,5.7,-15.8,50.1µM*,9.1%,-5.0,13.8,28.2µM*
Cc1cnc(NC(=O)/C=C/c2ccc(Br)o2)s1,-0.2,?,-26.6%,13.5%,4.3,5.5,0.1%
COC(=O)[C@@H](NC(=O)NC1CCN(Cc2ccccc2)CC1)C(C)C,0.3,60.6,-4.8%,-1.4%,-3.9,-1.9,-1.3%
COc1ccc2oc(C(=O)NCCN3CCOCC3)c(C)c2c1OC,-0.3,-9.4,10.2%,-0.9%,11.9,.,?
O=C(Nc1ccc([N+](=O)[O-])cc1)c1cncc(Br)c1,0.9,27.2,-16.8%,-1.5%,-24.8,4.7,1.9%
Cc1ccc(NC(=O)CN(C)C(=O)Cn2cc(C(F)(F)F)ccc2=O)cc1,-0.8,-5.8,19.4%,0.3%,5.3,3.9,-0.4%
CCOC(=O)c1ccc(NC(=O)C2C3CCCCC32)cc1 (centres undefined),1.3,-1.9,-2.0%,9.4%,16.7,-1.1,-0.9%
O=C(Nc1cccnc1Cl)c1cc(-c2cccc(O)c2)on1,0.0,-9.0,-11.1%,0.6%,3.0,-2.9,.
O=C(Nc1ccccc1F)c1ccc2c(c1)CCN2S(=O)(=O)c1ccccc1,-1.1,26.6,10.8%,0.2%,3.8,3.4,-0.6%
Cc1cccc(N(C)C(=O)c2cc3c(=O)[nH]c4ccc(C)cc4c3s2)c1,0.1,8.5,15.5%,13.8%,1.5,3.4,.
NS(=O)(=O)c1ccc(CCNC(=O)CN2CCCCC2)cc1,-0.4,-6.4,18.5%,0.9%,5.2,-2.7,.
O=C(/C=C/c1c(F)cccc1Cl)NCc1ccco1,1.5,57.4,-14.1%,3.0%,-19.5,3.3,10µM*
COc1ccc(S(=O)(=O)N/N=C(/C)c2cccc(NC(=O)c3ccccc3Cl)c2)cc1,1.4,-3.4,11.3%,-1.2%,?,1.9,0.4%
CN(c1cccc(NC(=O)c2cccc([N+](=O)[O-])c2)c1)S(C)(=O)=O,1.2,-23.6,3.4%,2.2%,16.8,2.2,-0.2%
COCCn1c(C)cc(O)c(C(c2ccccc2)N2CCN(CCO)CC2)c1=O (centres undefined),-0.3,-10.5,.,2.4%,.,.,0.1%
CCCNC(=O)c1cc(C2CCCCN2S(=O)(=O)Cc2cccc(C(F)(F)F)c2)on1 (centres undefined),-0.5,-1.0,.,-1.0%,.,.,0.7%
O=C(CCc1ccco1)CCc1ccco1,0.7,-14.1,.,0.7%,.,.,-3.8%
COc1ccc(N2C[C@H](CSC)[C@@H](CC(=O)Nc3ccccc3)C2=O)cc1,-0.2,3.7,.,-0.2%,.,.,2.0%
CCOC(=O)Nc1cccc(C(=O)O)c1,-0.4,-0.6,-3.4%,3.4%,?,1.2,0.9%
Cc1cc(C(=O)O)oc(=O)c1,1.6,-9.9,0.1%,-1.7%,8.8,-1.2,.
CCCC(CCC(=O)Nc1ccc(S(N)(=O)=O)cc1)C(=O)O (centres undefined),0.3,-10.0,6.2%,-0.2%,10.1,0.7,1.0%
O=[N+]([O-])c1ccc2[nH]c(=S)sc2c1,0.1,2.5,.,?,.,.,-0.3%
COc1ccc(S(=O)(=O)N2CCCCC2)cc1NC(=O)C1CC(=O)N(Cc2ccco2)C1 (centres undefined),-0.3,-6.3,.,3.5%,.,.,.
# (list continues)
SMILES,TRPML1 agonist,TRPML1 blocker,Sfp inh,PINK1 modulator,TRPV1 potentiator,Menin-MLL FL inh,ClpP mod
Cc1cccc(C(=O)Nc2ccc(N3CC=C(c4ccccc4C)CC3)c(C(=O)O)c2)c1,-0.9,4.3,.,0.4%,.,.,-18.4%
CCOC(=O)N1CCC(NCCNC(=O)c2ccccc2Cl)CC1,-0.3,17.8,4.3%,-1.2%,-0.1,-0.1,0.0%
CC(C)Oc1ccc(CCC(=O)NNC(=O)CCC(=O)O)cc1,0.6,-13.9,18.2%,-0.2%,-0.1,4.6,1.0%
Cc1ccc(OCC(=O)Nc2ccccc2C(=O)N2CCCC2)cc1,0.2,6.0,11.3%,0.9%,-15.1,.,1.3%
CCN(CC)C(=O)C1CCN(c2ncnc3c2cnn3-c2ccc(C)cc2C)CC1,0.1,-1.5,56.2µM*,0.8%,-10.0,-5.3,-0.4%
COc1ccc(/C=C/c2sc3ccccc3[n+]2CCCCI)cc1OC,0.0,.,.,0.0%,.,.,-2.7%
Cc1cccc2sc(N3CCN(C(=O)c4ccco4)CC3)nc12,2.0,-6.9,.,-0.1%,.,.,-0.6%
CCOc1ccc(S(=O)(=O)N2CCN(C(=S)NCC3CCCO3)CC2)cc1 (centres undefined),-0.8,7.6,.,1.3%,6.6,.,.
COc1ccc(OC)c(-n2c(CN3CCC(C(N)=O)CC3)nc3ccccc3c2=O)c1,2.3,26.5,35.5µM*,3.1%[38.3 µM],-11.0,-1.1,0.2%
COc1cc(C(=O)NNC(=O)c2cc(-c3ccccc3)n[nH]2)cc(OC)c1C,0.1,13.9,.,5.8%,13.7,.,.
COC(=O)c1ccc(CNC(=O)/C=C/[C@H]2O[C@@H](n3cc(C)c(=O)[nH]c3=O)C[C@@H]2O)cc1,0.1,-13.8,.,4.2%,.,.,-2.1%
CCCCn1c(=O)[nH]c(=O)c2c1nc(CN(C)Cc1cccc(OC)c1OC)n2CCC,1.4,-11.8,50.1µM*,2.0%,17.6,3.8,1.7%
CN=C1S/C(=C\c2ccc(Cl)cc2)C(=O)N1C,-0.5,-0.2,2.1%,-0.2%,-17.2,-0.5,.
CN1CCN(S(=O)(=O)c2ccc3c(c2)C(C)(C)C(=O)N3C)CC1,0.7,-0.1,7.9%,2.2%,21.4,2.9,-0.3%
